# Bioassay records deposited in PubChem by National Center for Advancing Translational Sciences (NCATS).
# VDR inh – inhibitors of human vitamin D receptor | P11473 | Potency, µM, for inactives: max response, negative = inhibition, most hits filed as inhibitors | 0.93% of 400,000 active | VDR-SRC2-3 peptide fluorescence polarization, 2 h; active = well fitted inhibition curve with a large enough effect; inconclusive = small, poorly fitted or top-dose-only effect, or another doubt; inactive = no such curve, though single readings can be large or run the other way; note: series mostly up to about 120 µM
# Target sequence (P11473 whole entry, looked up): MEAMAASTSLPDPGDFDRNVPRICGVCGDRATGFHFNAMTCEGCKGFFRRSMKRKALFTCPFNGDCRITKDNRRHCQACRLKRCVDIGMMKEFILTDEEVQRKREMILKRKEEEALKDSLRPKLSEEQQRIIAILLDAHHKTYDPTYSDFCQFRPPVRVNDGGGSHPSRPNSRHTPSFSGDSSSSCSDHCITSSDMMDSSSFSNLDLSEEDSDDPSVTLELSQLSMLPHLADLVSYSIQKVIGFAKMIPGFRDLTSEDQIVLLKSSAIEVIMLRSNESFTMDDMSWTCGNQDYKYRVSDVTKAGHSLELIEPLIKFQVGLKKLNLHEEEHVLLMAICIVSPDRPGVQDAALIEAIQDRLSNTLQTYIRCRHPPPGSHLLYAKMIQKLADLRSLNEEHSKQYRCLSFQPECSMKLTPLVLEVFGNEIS
#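 Two reagent solutions held at 4 deg C in the dark were dispensed, compounds pinned at 23 nl, and the mixture incubated 2 h at room temperature. Read-out: fluorescence polarization of VDR–SRC2-3 peptide binding.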
# * hit, by the source's call; ? = inconclusive; & = joins results of further samples; [ ] = remark or other dose. % is set by controls: 0 for no effect and ±100 for the full control effect; potency is the fitted concentration of half-maximal effect. A portion of the library; the hit share may differ from the screen's.
VDR inh | SMILES
12% | COc1ccccc1/C=N/n1cnnc1
-18% | CSc1ncc(CNc2cc([N+](=O)[O-])ccc2C)c(N)n1
-8% | CCOc1ccc2nc(N3CCCC(C(=O)Nc4ccc(Br)c(C)c4)C3)sc2c1 (stereo unspecified)
7% | COc1ccc(S(=O)(=O)N2CCOCC2)cc1NC(=O)/C=C/c1ccccc1
-22% | c1ccc(CSCc2ccccc2)cc1
9% | O=C(O)c1ccc2c(=O)n(-c3ccccc3)c(=S)[nH]c2c1
-6% | CCc1cc(C(=O)Nc2cc(S(=O)(=O)N3CCOCC3)ccc2N2CCN(CC)CC2)sc1C
9% | Cc1ccc(S(=O)(=O)C(C#N)c2nc3ccccc3nc2N2CCN(C)CC2)cc1 (stereo unspecified)
6% | Cc1ccc2nsnc2c1S(=O)(=O)N(Cc1ccco1)Cc1cc2ccc(C)c(C)c2[nH]c1=O
-2% | Cc1ccc(S(=O)(=O)N(C)CC(=O)N2CCC(C(N)=O)CC2)cc1
-3% | COc1ccc(C2CC(c3ccccc3)=NN2S(=O)(=O)c2ccc(C)cc2)c(OC)c1 (stereo unspecified)
-6% | CCCCSc1nnc(CCNC(=O)OC(C)(C)C)o1
12% | CC(=O)CC(C)(C)Nc1nc2ccc([N+](=O)[O-])cc2o1
2% | CC(=O)Nc1cccc(OC(=O)N2CCOCC2)c1
? | CCN(CC(=O)Nc1ccc(OC)cc1)C(=O)c1ccc([N+](=O)[O-])cc1
-21% | CCOc1ccc(NC(=S)N2CCN(CCN3C(=O)c4cccc5cccc(c45)C3=O)CC2)cc1
-25% | CCOC(=O)[C@H]1[C@H]2COc3cc(OC)ccc3[C@@H]2N2C(=O)CN(Cc3ccco3)C(=O)[C@@]12C
9% | O=C(O)c1ccc(C(=O)O)c(C(=O)c2ccc(NC(=O)c3ccccc3)cc2)c1
0% | Cc1ccc(/C=C2\Oc3cc(OC(=O)N4CCOCC4)ccc3C2=O)cc1
-3% | COc1ccc2oc(CS(=O)c3ccccc3)c(C(=O)O)c2c1 (stereo unspecified)

# New compounds follow
VDR inh | SMILES
12% | Cc1ccc(S(=O)(=O)NCCC(=O)N2CCN(C/C=C/c3ccccc3)CC2)cc1
-18% | CCCC(NC(=O)C(C)Sc1nnnn1C1CC1)c1ccccc1 (stereo unspecified)
9% | Cc1cc(/C=C(\C#N)C(=O)Nc2ccccc2)c(C)n1-c1ccc(F)cc1
12% | Cc1ccccc1-c1noc(CCC(=O)Nc2cccc(C)c2C)n1
17% | CN(C)S(=O)(=O)c1ccc(-c2ccccc2)cc1
-12% | Cc1c(NS(=O)(=O)c2ccc3c(c2)n(C)c(=O)n3C)c(=O)n(-c2ccccc2)n1C
6% | COC(=O)NCC(c1ccc2c(c1)OCO2)N1CCN(c2ccccc2)CC1 (stereo unspecified)
-5% | COc1ccccc1CN1CC(C(=O)NCCN2CCOC2=O)CCC1=O (stereo unspecified)
-4% | CCCCC#Cc1cncc(C(=O)N/N=C/c2ccccc2)c1
13% | N#CCC(=O)N/N=C/c1cn(Cc2ccc3ccccc3c2)c2ccccc12
24% | N#Cc1cccc(NC(=O)Cc2ccccc2)c1
-15% | Cc1c(-n2c(O)c(C3=c4ccccc4=NC3=O)sc2=O)c(=O)n(-c2ccccc2)n1C
-11% | COc1ccc([N+](=O)[O-])cc1NC(=O)C1CCCN1S(=O)(=O)c1cccs1 (stereo unspecified)
-15% | COc1ccc(Cl)cc1C(=O)NNC(=O)CCNC(C)=O
? | Cc1cc(C)n(CC(C)NC(=O)c2cc(COc3c(F)cccc3F)on2)n1 (stereo unspecified)
16% | COc1ccccc1N1CCN(c2nc(C)nc3c2oc2ccccc23)CC1
20% | C=CCOc1ccc(/C=C2\SC(=S)N(N3CCOCC3)C2=O)cc1
4% | COc1c(C=NNC(N)=O)c(OC)c(OC)c2c1CCO2
6% | Cc1cccc(C)c1NC(=O)CN(C)CC(=O)c1c(N)n(Cc2ccccc2)c(=O)n(C)c1=O
3% | Cc1noc(C)c1-c1nccc(Nc2ccc(F)cc2)n1

# 2 entries from above, as labelled records.
CN(C)S(=O)(=O)c1ccc(-c2ccccc2)cc1
  VDR inh: 17%

Cc1c(NS(=O)(=O)c2ccc3c(c2)n(C)c(=O)n3C)c(=O)n(-c2ccccc2)n1C
  VDR inh: -12%

# Copied from the list.
# Entry of `Cc1cc(/C=C(\C#N)C(=O)Nc2ccccc2)c(C)n1-c1ccc(F)cc1` under VDR inh: 9%
# Entry of `Cc1c(-n2c(O)c(C3=c4ccccc4=NC3=O)sc2=O)c(=O)n(-c2ccccc2)n1C` under VDR inh: -15%
# Entry of `CCCC(NC(=O)C(C)Sc1nnnn1C1CC1)c1ccccc1` (stereo unspecified) under VDR inh: -18%
# Entry of `Cc1c(NS(=O)(=O)c2ccc3c(c2)n(C)c(=O)n3C)c(=O)n(-c2ccccc2)n1C` under VDR inh: -12%
# Entry of `COc1ccc(Cl)cc1C(=O)NNC(=O)CCNC(C)=O` under VDR inh: -15%

# Further entries
VDR inh | SMILES
-16% | COc1ccc(CNC(=O)c2nc(Cn3nc(C)c(Br)c3C)no2)cc1OC
-22% | CCN(CC)C(=O)/C=C/c1ccccc1
5% | COc1ccc(-n2nc(C(=O)NCc3ccc(F)cc3Cl)c3c4ccccc4n(C)c3c2=O)cc1Cl
4% | CCCCc1nnc(SCC(=O)Nc2nccs2)n1C
8% | CCOc1ccc2nc(SCC(=O)c3ccccc3)sc2c1
20% | O=C(CCCCC(=O)OCC1CCCO1)OCC1CCCO1 (stereo unspecified)
-20% | O=C(Nc1nnc(S(=O)(=O)Cc2ccc(F)cc2)s1)c1ccccc1F
-2% | O=C(Nc1ccc(F)cc1)Nc1ccc(N2CCCC2)c(S(=O)(=O)Nc2ccccc2Cl)c1
16% | COc1ccccc1N1CCN(C(=O)Cn2nnc(-c3ccncc3)n2)CC1
-15% | CCN(C[C@H]1N[C@@](Cc2ccccc2)(C(=O)OC)[C@H]2C(=O)N(C)C(=O)[C@@H]12)C(=O)c1ccc(C(C)(C)C)cc1
-5% | CCOC(=O)c1cc2c(nc1N)CCCC2
-1% | CCOC(=O)NC(NC(=O)OCC)C(=O)c1ccccc1
7% | COCCNC(=O)c1onc(CSc2ccccc2)c1C(=O)NCCOC
-10% | O=C1CCCCC1Sc1nnc(-c2ccc3c(c2)OCO3)o1 (stereo unspecified)
-15% | Cc1ccc(CNC(=O)c2ccc(N3CCC4(CC3)CC(c3ccccc3)=NO4)c(NC(=O)c3ccccc3)c2)cc1
5% | Cc1ccc2c(c1)N(S(=O)(=O)c1cc(-c3cc(C)no3)ccc1C)CCO2
0% | CC(C)Oc1ccc(Br)cc1/C=N\NC(N)=S
7% | Cc1cccc(NC(=O)Cn2c(O)c(N=NC(=O)c3ccncc3)c3ccccc32)c1
5% | NC(=O)COc1ccc(C2c3c(oc4ccccc4c3=O)C(=O)N2CC2CCCO2)cc1 (stereo unspecified)
-1% | Cc1ccc(O)c(-c2cc(-c3cccc(F)c3)n[nH]2)c1

# (further entries)
VDR inh | SMILES
-2% | NC(=O)CC[C@@H]1NC(=O)[C@@H]2CCCN2C(=O)c2cc([N+](=O)[O-])cc(I)c2NCCC[C@@H](C(=O)NC(CC(=O)O)C(N)=O)NC1=O (stereo partly specified)
-6% | C/C(=N\OC(=O)c1ccc(Cl)cc1)c1nccs1
8% | COc1ccc(N2CCN(C(=O)CN(C3CCCCC3)S(C)(=O)=O)CC2)cc1
-12% | CN1C(C(=O)NCCc2cccs2)CC2Cn3c(nc4cc5ccccc5cc43)C21 (stereo unspecified)
9% | COC(=O)CN1C(=O)[C@H]2[C@@H](/C=C/c3ccccc3)N3C(=O)CN(CC4CC4)C(=O)[C@@]3(Cc3ccccc3)[C@H]2C1=O
-1% | COc1ccc(/C=N/NC(=O)c2snnc2C)c(OC)c1OC
-12% | CCCCCNCC(=O)Nc1cccc(C(=O)Nc2cccc(C(F)(F)F)c2)c1
-14% | COc1ccc(N(CC(=O)NCc2cccs2)S(=O)(=O)c2cccc(C)c2)cc1
? | Fc1ccc(-c2ccnc(=S)[nH]2)cc1
-14% | COc1ccc(S(=O)(=O)NCC(=O)Nc2ccc(F)cc2)cc1
-12% | Cc1c(Cl)cccc1NC(=S)N(Cc1ccccc1)Cc1cccnc1
1% | O=C(NC1CCOC1)c1cc(COc2cccc(C(F)(F)F)c2)on1 (stereo unspecified)
4% | CC(C)c1cc(=O)n2[nH]c(SCc3ccccc3Cl)nc2n1
8% | Nc1nnc(-c2ccc([N+](=O)[O-])o2)s1
? | Cc1ccc(S(=O)OCC(=O)Nc2cc(Cl)ccc2N2CCOCC2)cc1 (stereo unspecified)
-1% | CCOC(=O)N1CCN(c2nc(=S)n(-c3ccccc3)c(C)c2C(C)=O)CC1
-12% | CCNC(=S)N(CCO)Cc1cc2cc3c(cc2[nH]c1=O)OCO3
1% | CCc1cccc(CC)c1NC(=O)CSc1nnc(CCC(=O)O)c(=O)[nH]1
11% | CCc1ccc2c(CC(=O)NNC(=O)c3ccncc3)coc2c1
3% | CCOC(=O)c1cccc(NC(=O)CSc2nnc(-c3cccnc3)n2CC)c1

# (further entries)
VDR inh | SMILES
-6% | Cc1ccc(N(C(=O)c2snc(C(N)=O)c2N)C(C(=O)NCC2CCCO2)c2ccc(C)o2)c(C)c1 (stereo unspecified)
? | Cc1ccccc1N1CCN(C(=S)c2ccc(-c3ccc([N+](=O)[O-])cc3)o2)CC1
-13% | O=C1NC(Cc2ccccc2)C(=O)Nc2ccc(Br)cc21 (stereo unspecified)
8% | O=C(CSc1ncnc2sc3c(c12)CCCC3)N1CCC(c2noc3ccc(F)cc23)CC1
32%[activator] | COc1ccc2c(C)c(C(=O)N3CC[C@@H](N4CCC(O)CC4)[C@H](O)C3)oc2c1
2% | CCn1cc([N+](=O)[O-])c(C(=O)Nc2c(C)nn(Cc3c(F)c(F)c(F)c(F)c3F)c2C)n1
18% | C=CCOc1ccc2ccccc2c1/C=N/O
11% | CN(C)S(=O)(=O)c1cccc(C(=O)OCC(=O)c2ccc3c(c2)NC(=O)CO3)c1
12% | CC(C)(Oc1ccc(Cl)cc1)C(=O)NC1CCN(Cc2ccccc2)CC1
6% | COc1ccc(-c2cc(C(=O)N3CC4(C)CC3CC(C)(C)C4)no2)cc1 (stereo unspecified)
-7% | COc1cc2cc(C(=O)O)n(C)c2c(OC)c1OC
-21% | CCCOC(=O)Cc1n[nH]c(=O)[nH]c1=O
1% | O=C(Cc1ccc(Cl)cc1)N/N=C1\CCCc2ccccc21
20% | Cn1ncc(Cl)c1C(=O)NNC(=O)Nc1cccc2ccccc12
-12% | COc1ccc(CNC(=O)/C=C/c2ccc(S(=O)(=O)NCc3ccco3)cc2)cc1OC
-17% | O=[N+]([O-])c1ccc(Nc2ccc(F)cc2)nc1
11% | CCN(Cc1nc(-c2ccc(OC)cc2)oc1C)S(=O)(=O)c1ccc(C)cc1
0% | O=C(NCC1CC1)c1cccc2c1C(=O)c1ccc(N3CCCC3)cc1S2(=O)=O
-5% | Cc1nc2ccc(Cc3ccc4nc(C)[nH]c4c3)cc2[nH]1
12% | O=C(N/N=C/c1cccc(O)c1)c1ccc(NC(=O)C2CCCCC2)cc1

# 6 successive compounds already listed:
VDR inh | SMILES
-12% | COc1ccc(CNC(=O)/C=C/c2ccc(S(=O)(=O)NCc3ccco3)cc2)cc1OC
-17% | O=[N+]([O-])c1ccc(Nc2ccc(F)cc2)nc1
11% | CCN(Cc1nc(-c2ccc(OC)cc2)oc1C)S(=O)(=O)c1ccc(C)cc1
0% | O=C(NCC1CC1)c1cccc2c1C(=O)c1ccc(N3CCCC3)cc1S2(=O)=O
-5% | Cc1nc2ccc(Cc3ccc4nc(C)[nH]c4c3)cc2[nH]1
12% | O=C(N/N=C/c1cccc(O)c1)c1ccc(NC(=O)C2CCCCC2)cc1

# Later entries
VDR inh | SMILES
5% | Cc1ccc(CCNS(=O)(=O)c2ccc3c(c2)N(C)CCO3)cc1
-19% | c1ccc(-c2nc3c4ccccc4ccn3c2CN2CCOCC2)cc1
-17% | Nc1ccc(C(=O)OCC(=O)N2CCc3ccccc3C2)cc1[N+](=O)[O-]
5% | CCn1c(Cc2ccccc2)nnc1SCC(=O)Nc1ccc2c(c1)OCCO2
-12% | CCOc1ccc(C(=O)NCC(=O)NCCCSc2ccccc2)cc1OCC
-23% | O=C(CCC1CCCN(C(=O)c2cc(C3CC3)[nH]n2)C1)N1CCN(c2ccccn2)CC1 (stereo unspecified)
6% | Nc1ccc(C(=O)OCc2nc3ccccc3[nH]2)cc1
-6% | COc1cccc(Cn2c(=O)c(-c3cccc(C#N)c3)nc3cnc(OC)nc32)c1
4% | COc1ccc2nc3oc(C(=O)N4CCC(C(N)=O)CC4)cc3cc2c1
1% | CCOc1ccc(NC(=O)CN2C(=O)COc3ccc(Cl)cc32)cc1
9% | COC(=O)[C@@]1(C)[C@H]2C(=O)N(C)C(=O)[C@H]2[C@H]2CN=C(SCc3ccc(C#N)cc3)N21
1%&10% | CCn1c(=O)c2cc(C(=O)NCCCOC)sc2c2ccccc21
? | CC(=O)C1=C(c2cccc([N+](=O)[O-])c2)N(C(C)=O)n2c(C)nnc2S1
-4% | COC(=O)c1[nH]c2cccc(C)c2c1NC(=O)CN1CCCc2ccccc21
-6% | Cc1c(Br)c(=O)[nH]c(=O)n1COCc1ccccc1
1% | Cc1cc(C(=O)N/N=C/c2ccco2)c2ccccc2n1
-6% | Nc1ncnc2c1ncn2[C@@H]1O[C@H](C(=O)NC2CC2)[C@@H](O)[C@H]1O
-3% | CC(C)CN(C(=O)CSc1nc(N)cc(N)n1)C1CCS(=O)(=O)C1 (stereo unspecified)
-1% | Cn1c(=O)c2c3c(sc2n2c(SCC(N)=O)nnc12)CC(C(C)(C)C)CC3 (stereo unspecified)
-3% | CC(C)CC(=O)Nc1nnc(S(=O)(=O)Nc2ccccc2)s1
